# ugtP null kill: kills S. aureus RN4220 lacking UgtP; S. aureus RN4220 ugtP deletion, OD600 growth, 16 h; some inactives read as strong as hits; growth inhibition, % (concentration not given with the values); actives 0.54% (n = 330,000); AID 1259309;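 active means z-score under -3 and OD600 up to 0.15 on both plates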;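 further: plate controls were untreated wells for no effect and antibiotic for full effect; wells of about 80 µL received 100 nL stock; the first replicate is given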
# BJeLR viability: BJeLR cell viability loss; BJeLR (HRASV12) viability, CellTiter-Glo ATP luminescence, 48 h; reference of the scale not given here; inhibition, % (concentration not given with the values); actives 0.17% (n = 300,000);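 active means replicate mean above 50%; inconclusive means above 50% but judged a plate artefact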;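 further: 50 nL library stock added to about 25 µL; numbers are from one replicate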
# PrP UTR inh: inhibition of PrP 5' UTR reporter expression; cell-based PrP 5' UTR mRNA reporter, plate reader; inhibition, % (test concentration not listed); actives 0.35% (n = 340,000);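 active means every replicate at 50% or more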;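 further: 0 = median of the neutral control wells; tested in H4 reporter cells; numbers are from one replicate; inactives centre near -14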
# Bead autofluor: flagged as autofluorescent in microsphere protease counterscreen | compound autofluorescence counterscreen, microsphere flow cytometry; hits give high values | fluorescence intensity (test concentration not listed) | actives 3.1% (n = 360,000);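 active means at least 3 SD above the mean of all compounds, about 16000 in these data; inconclusive means too few beads counted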;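 further: 100 nL of 1 mM stock went into each well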
# Mtb hypoxia rep: inhibitors of hypoxia-regulated fluorescent reporter in Mycobacterium tuberculosis; M. tuberculosis hypoxia-regulated fluorescent reporter, fluorescence; fluorescence inhibition, % (concentration not given with the values); actives 0.1% (n = 300,000); AID 1159583;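 active means 35 to 45% if threefold the growth effect, above 45% if 1.5-fold the growth effect; inactive means the rest, general growth blockers included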;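 further: wells of about 50 µL received 100 nL stock; 0% = vehicle wells and 100% = reference inhibitor wells; whole bacteria with a GFP reporter of the hypoxia response; strong numbers were not always called active; many hits fall short of the cut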
# Sa RN4220 lethal: kills Staphylococcus aureus RN4220. AID 1259311. S. aureus RN4220 growth, OD600, 16 h. actives 0.33% (n = 330,000). inhibition, % (concentration not given with the values);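 active means z-score of -3 or lower and OD600 up to 0.18 on both plates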;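 further: plate controls were untreated cells for no effect and reference antibiotic for full effect; stock transfer was 100 nL into about 80 µL; one replicate is shown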
# Mtb hypoxia rep growth: second read-out of Mtb hypoxia rep, no call of its own (marks repeat the call); growth inhibition, %; measured here: M. tuberculosis growth (absorbance);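 0% = vehicle and 100% = reference antibiotic; read after six days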
# Starred values were filed as active, the others as inactive; u = inconclusive; x = no result given.
SMILES,ugtP null kill,BJeLR viability,PrP UTR inh,Bead autofluor,Mtb hypoxia rep,Mtb hypoxia rep growth,Sa RN4220 lethal
CC(Oc1ccccc1F)C(=O)NNC(=O)c1cccc(S(=O)(=O)N2CCN(C)CC2)c1 (configuration not stated),5,x,-15,3861,3,-2,6.8
COc1ccc(CCCC(=O)NCCc2ccccc2)cc1,5,9,-19,3874,8,8,3.3
O=C(OCCOc1ccccc1Cl)c1ccc(-n2cnnn2)cc1,-12,-5,-24,9217,1,14,5.5
CC(=O)OC1CCC2(/C=N/O)C(=CCC3C4CCC(=O)C4(C)CCC32)C1 (configuration not stated),x,-2,-16,3619,x,x,x
Cc1oc2ccccc2c1CC(=O)NCCCN(C)C,4,-5,-13,3897,3,6,1.8
COC(=O)C1=CN(CCCN2CCCC2=O)C=C(C(=O)OC)C1c1cccs1,2,-2,-16,4545,8,14,3.5
O=C(NCCC1=CCCCC1)C(=O)NCCc1ccc(Cl)cc1,2,-6,-18,4762,6,3,-0.3
O=C(c1ccc(C#Cc2ccccc2)o1)N1CCN(c2ccccn2)CC1,-9,2,-26,8982,9,0,12
COc1ccc(CCNCc2ccc(C)s2)cc1OC,11,-3,-18,3146,5,9,0.4
C/C(=N\Nc1cccc(C(=O)O)c1)c1cc2ccccc2o1,x,4,-50,4299,x,x,x
Cc1ccc(C2(C)NC(=O)N(CC(=O)NC(=O)NCCC(C)C)C2=O)cc1 (configuration not stated),1,9,-15,6960,17,5,4.4
Cc1cc(C)cc(NC(=O)C2CCCN2C(=O)NC2CCCCC2)c1 (configuration not stated),6,-4,-29,4541,16,3,2.3
CC(CC(=O)Nc1ccccc1)NCCCN1CCCC1=O (configuration not stated),2,-4,-8,2984,7,8,-0.3
CC(C)NC(=O)N(C)C[C@H]1Oc2ccc(NC(=O)NC3CCCCC3)cc2C(=O)N([C@H](C)CO)C[C@@H]1C,15,x,4,4141,0,-3,21
O=Cc1ccc(OCC(=O)NC(=O)NC2CCCCC2)cc1,6,-3,-10,3823,10,4,-1.8
COc1ccc(NC(=O)CSc2nnc(C3CC3)n2N)cc1,1,-1,x,8420,-4,3,3.2
COC(=O)COc1ccc2c(=O)c(-c3ccccc3)coc2c1,5,-2,-14,3759,10,15,3.1
NS(=O)(=O)c1cccc(NC(=O)CC23CC4CC(C2)CC(CC(=O)Nc2cccc(S(N)(=O)=O)c2)(C4)C3)c1,-3,4,-14,3934,-21,-3,3.6
Cc1onc(-c2c(Cl)cccc2Cl)c1C(=O)OCC(=O)c1ccccc1,20,-7,-2,4388,7,15,3.4
Cn1c(SCc2ccc([N+](=O)[O-])cc2)nnc1-c1ccncc1,17,0,-23,3665,4,9,5.8
COC(=O)c1sc(S(=O)(=O)N2CCN(CCO)CC2)c(C(=O)OC)c1C,10,4,-16,2449,12,4,4.0
CCOc1cc(C=NNC(=O)Cc2ccc(C(F)(F)F)cc2[N+](=O)[O-])c(Br)cc1OC,-3,x,x,x,0,5,0.0
O=C1CCCCC=CCC(CC(=O)N(CCO)Cc2ccccc2)C(=O)NCC(c2ccccc2)O1 (configuration not stated),1,x,x,x,-7,5,2.9
CCOC(=O)CCC(=O)Nc1ccc([N+](=O)[O-])cc1C,2,4,-18,4148,5,2,2.9
O=C1CSC(=S)N1,5,5,-24,5148,-4,0,3.3

# Additional compounds follow:
SMILES,ugtP null kill,BJeLR viability,PrP UTR inh,Bead autofluor,Mtb hypoxia rep,Mtb hypoxia rep growth,Sa RN4220 lethal
Cc1cc2[nH]c(=O)c(=O)[nH]c2cc1S(=O)(=O)N1CCN(c2ccccc2)CC1,8,-7,-12,4235,x,x,1.6
Cc1ccnc(NC(=O)c2cccc(S(=O)(=O)N3CCCc4ccccc43)c2)c1,2,1,-97,u,6,-2,4.3
COC(=O)Nc1ccc(S(=O)(=O)N2CCN(c3ccc(F)cc3)CC2)cc1,2,-3,-17,8525,8,12,3.9
Cc1nnc(SCC(=O)NC(=O)NCc2ccco2)n1Cc1ccccc1,-4,-9,-28,2373,x,x,2.0
Cc1ncoc1C(=O)N1CCCC(C(=O)c2ccc(Oc3ccccc3)cc2)C1 (configuration not stated),-10,0,-24,3068,9,-2,2.7
Brc1ccc(C2Nc3cccc4cccc(c34)N2)s1,-6,x,-27,2518,8,-2,4.0
COc1ccccc1C1CC(c2ccc(Br)cc2)=NN1C(=O)c1cccnc1 (configuration not stated),-16,-23,-14,4898,3,7,-1.7
CCOc1cc(C=NNC(=O)C(=O)Nc2cc(Cl)ccc2C)ccc1O,-6,x,x,x,1,-1,7.6
O=C(CN1CCOCC1)Nc1nc2ccc([N+](=O)[O-])cc2s1,0,14,-15,1971,-6,6,1.8
C[C@H](CO)N1C[C@H](C)[C@@H](CN(C)C)Oc2c(NS(=O)(=O)c3ccc(F)cc3)cccc2C1=O,-7,x,-26,3571,3,8,-11
Cc1ccc(C(=O)N=c2sccn2C)cc1C,2,9,-55,5108,8,7,2.2
N#Cc1cccc(NC(=O)CCNC(=O)c2ccccc2Cl)c1,4,-7,-21,3198,13,-3,1.8
COc1ccc(Cl)cc1Nc1nc(C)cc(=O)[nH]1,-10,-6,-1,5003,x,x,0.6
Cc1ccc2nc3n(c(=O)c2c1)CCC3,9,1,-19,10340,14,5,4.0
COCCN(C(=O)COC(=O)/C=C/c1ccc(OC)c(OC)c1)c1c(N)n(Cc2ccccc2)c(=O)[nH]c1=O,7,6,-6,5126,-1,-13,-1.1
Cc1ccccc1C(=O)N1N=C(c2ccc(NS(C)(=O)=O)cc2)CC1c1cccs1 (configuration not stated),2,-3,-6,3533,-4,10,9.1
COc1ccc(C(=O)CSc2nnc(CNc3nc(-c4ccccc4)cs3)n2C)cc1,-21,3,4,3548,x,x,1.7
Cn1c(CCc2nc3ccccc3[nH]2)n[nH]c1=S,0,-2,-15,3634,5,1,3.4
Cc1ccc(-n2cnc3cc(NCc4cccs4)ccc32)cc1,2,0,-15,u,8,8,10
Cc1ccc(C2CCN(C(=S)NC3CCCCC3)C2)cc1 (configuration not stated),15,5,12,4375,10,16,-0.6
CCOc1ccc(C(C(=O)NCC2CCCO2)N(C(=O)c2snc(C(N)=O)c2N)c2ccccc2F)cc1 (configuration not stated),x,-2,-20,3959,x,x,x
Cc1cccc(N(Cc2cc3ccccc3[nH]c2=O)S(=O)(=O)c2ccccc2)c1,-10,-20,-6,2050,10,1,5.7
O=C(NCC(c1cccs1)N1CCOCC1)c1ccccc1NS(=O)(=O)c1cccc([N+](=O)[O-])c1 (configuration not stated),1,9,-12,2220,4,10,9.7
COCC1CCN(C(=O)c2cc(COc3ccc4c(c3)CCCC4)on2)C1 (configuration not stated),6,-3,-5,4685,3,3,7.6
Cc1ccc(NC(=O)CSc2nc(O)c(Cc3ccccc3)c(=O)n2-c2ccccc2)cc1,0,-2,-14,2588,-5,-11,-0.1

# In the list so far, these have bromine:
SMILES,ugtP null kill,BJeLR viability,PrP UTR inh,Bead autofluor,Mtb hypoxia rep,Mtb hypoxia rep growth,Sa RN4220 lethal
CCOc1cc(C=NNC(=O)Cc2ccc(C(F)(F)F)cc2[N+](=O)[O-])c(Br)cc1OC,-3,x,x,x,0,5,0.0
Brc1ccc(C2Nc3cccc4cccc(c34)N2)s1,-6,x,-27,2518,8,-2,4.0
COc1ccccc1C1CC(c2ccc(Br)cc2)=NN1C(=O)c1cccnc1 (configuration not stated),-16,-23,-14,4898,3,7,-1.7

# Going on with the list.
SMILES,ugtP null kill,BJeLR viability,PrP UTR inh,Bead autofluor,Mtb hypoxia rep,Mtb hypoxia rep growth,Sa RN4220 lethal
Cc1cccc(-n2ncc3c(NCCCO)ncnc32)c1,9,-6,-61,6146,14,5,7.7
Cc1ccc(/C=C/C(=O)NCC2COc3ccccc3O2)o1 (configuration not stated),3,-5,-22,2253,1,-5,1.8
O=C(NNC(=O)C1CCCC1)c1ccccc1F,x,3,-16,5924,x,x,x
COc1ccc(OC)c(-c2cc(C3CCN(C(=O)OC(C)(C)C)CC3)[nH]n2)c1,10,0,-31,4343,5,7,5.7
N#CC1=C(N)N2C(=C(C#N)C13CCCC3)Nc1ccccc12,-1,3,-6,4554,11,20,4.0
CCN(CC(=O)Nc1cccc(OC)c1)C(=O)c1cnc(Cl)c(Cl)c1,1,-6,-18,3003,-4,-9,-4.8
COC(=O)C(C)n1cnc2c(nnn2-c2ccc(F)cc2)c1=O (configuration not stated),-3,-3,-42,6876,6,7,3.8
O=C(c1ccc(Cl)cc1)N1CCN(c2cc(=O)[nH]nc2-c2ccccc2)CC1,35,-9,-8,3399,24,7,5.1
Cc1ccc(NC(=O)CN(C)C(=O)c2cc(-c3ccccc3)nn2-c2ccccc2)cc1,12,x,-16,5316,5,8,-5.3
O=C(N/N=C/c1c[nH]c2ccccc12)c1[nH]c2ccc(Br)cc2c1-c1ccccc1,x,26,68*,2068,x,x,x
COc1ccccc1C(=O)NN=Cc1cnc2ccccc2n1,4,x,x,x,-18,0,2.2
O=C(NC(=S)Nc1ccc(Cl)cn1)C12CC3CC(CC(C3)C1)C2,6,-8,-47,2605,-3,6,-3.4
CC1C(=O)N2CCCc3cc(NC(=O)c4ccccc4F)cc1c32 (configuration not stated),-5,6,-10,x,-4,-3,-0.4
Cc1ccc2c(c1)c(C)cc[n+]2Cc1ccccc1,5,-7,-14,7550,11,12,5.1
O=Cc1c(NCc2ccccc2Cl)c2ccccc2[nH]c1=O,0,-4,5,x,3,-2,0.8
CCOC(=O)c1nn(-c2ccccc2)c(C(=O)OCC)c1N,0,-9,-1,10326,17,14,2.5
Cc1ccc2nc(-c3ccccc3)c(CN3CCOCC3)n2c1,3,-2,-17,4613,3,8,2.1
O=C(Nc1ccc(OC(F)F)cc1)c1ncc(Cl)c(Cl)c1Cl,19,5,1,3281,0,-3,9.8
Cc1ccc(C)c(SCC(=O)OCC(=O)Nc2ncc(C(F)(F)F)cc2Cl)c1,2,-1,-22,2580,3,9,8.4
CCOc1ccc(Br)cc1S(=O)(=O)Nc1ccc(S(=O)(=O)Nc2cc(C)on2)cc1,-2,x,-18,4120,22,14,7.5
Cc1ccc(C)c(S(=O)(=O)NN=Cc2ccc(N3CCOCC3)cc2)c1,-5,x,x,x,-9,3,0.8
Cc1[nH][nH]c(=O)c1C(c1ccc(O)c(Br)c1)c1c(C)[nH][nH]c1=O,6,8,-9,3523,17,10,3.4
O=C(c1nc2nc(-c3ccccc3)cc(C(F)(F)F)n2n1)N1CCCCC1,14,x,-14,10771,2,9,6.0
O=C(O)c1cc(S(=O)(=O)Nc2ccc3c(c2)OCCO3)c(Cl)cc1Cl,-6,1,22,6363,x,x,-0.1
CC1C(=O)OC(c2ccc(Cl)cc2)C(C)(C)C1=O (configuration not stated),3,-2,-4,2947,3,-4,1.7

# New compounds follow:
SMILES,ugtP null kill,BJeLR viability,PrP UTR inh,Bead autofluor,Mtb hypoxia rep,Mtb hypoxia rep growth,Sa RN4220 lethal
COCc1cc(=O)[nH]c(SCC(=O)N2CCOCC2)n1,8,13,-13,4985,10,3,4.2
O=C(CN1CCN(S(=O)(=O)c2ccc3ccccc3c2)CC1)Nc1ccc2c(c1)CCC2,-17,-5,5,10602,5,2,9.8
O=C(C1CCOCC1)N1CCC(CO)(CCc2ccccc2)CC1,8,12,-11,2785,10,2,6.2
CCN(C(=O)CSc1nc(C)nc2sc(C)c(C)c12)c1ccc(F)cc1,7,x,-19,7912,4,4,0.8
COc1ccc(/C=N/NC(=O)c2ccccc2O)cc1Cn1nnc2ccccc21,x,-10,6,4135,x,x,x
CC(C)[C@H](NC(=O)N1c2ccccc2NC(=O)[C@@H]1C(C)C)C(=O)N[C@@H](Cc1ccccc1)C(=O)O,7,3,-12,5812,x,x,2.9
COC(=O)N/N=C/c1cccc(OCCSc2ccc(Cl)cc2)c1,x,-11,-56,2382,x,x,x
O=c1[nH]c2ccc(S(=O)(=O)N3CCN(Cc4ccccc4)CC3)cc2[nH]c1=O,-7,0,-11,21331*,12,9,5.1
O=c1[nH]c2cccnc2c2ccsc12,1,11,-22,4484,3,1,9.5
O=C(CNS(=O)(=O)c1ccccc1)NCc1ccco1,7,0,-21,5629,1,1,-0.2
CCOC(=O)CC(=O)N/N=C/c1c(N)n(C)c(=O)n(C)c1=O,x,-3,-26,2512,x,x,x
COc1ccc(C(=O)COC(=O)c2ccc(N(C)C)cc2)cc1,4,-11,-8,3318,0,2,-1.8
O=C(CSC(=S)N1CCCC1)c1cc(Br)cc(Br)c1O,22,2,x,x,11,2,6.7
COc1ccc(N2CCN(Cc3ccc(Br)s3)CC2)cc1,15,4,-23,4155,0,5,13
